miR-21 FLuc: qHTS Assay for Modulators of miRNAs and/orActivators of miR-21 | HeLa miR-21 FLuc reporter, luciferase, 48 h | Potency, µM (top dose mostly 38.3 µM), for the others: top-dose reporter change, positive = more light | 340,000 tested, under 10 active | AID 2288, 2010; active = well fitted rising curve with a large enough effect; inconclusive = small, poorly fitted or top-dose-only effect; inactive = no such curve, though single readings can be large or run the other way;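 also: % of control where 0% means no effect; miR-21 action dims this reporter so a rising signal means less miR-21 action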
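HeLa cells stably expressing CMV-driven firefly luciferase with a downstream miR-21 binding sequence, endogenously expressing miR-21, were treated with titrations (up to about 40uM final) for 48 hours at 37 degree Celsius. Luciferase luminescence was read after lysis.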
The depositor's hits bear a star; ? = inconclusive. An excerpt, so the mix of outcomes need not match the whole.

SMILES	miR-21 FLuc
COc1ccc(NC(=O)C2CCN(S(=O)(=O)c3c(C)noc3/C=C/c3ccco3)CC2)cc1	0%
Cc1nc(-c2ccccc2)sc1-c1ccc(SCC(=O)Nc2ccccc2)nn1	-19%
Cc1ccc(SCc2nc(-c3ccc(C(=O)Nc4cc(C)ccc4C)cc3)oc2C)cc1	1%
CC(=O)N1CCc2nc3sc(C(=O)Nc4ccc(Cl)cc4F)c(N)c3c(C(F)(F)F)c2C1	-8%
COc1ccc(N(Cc2nnc3n2CCCCC3)C(=O)Nc2cccc(C)c2)cc1Cl	-9%
Cc1cc(C)c(NC(=O)Nc2sc3nc4n(c(=O)c3c2C)CCC(C)CC4)c(C)c1 (centres undefined)	-1%
COc1ccc(NS(=O)(=O)c2ccc(-n3cccn3)cc2)cc1OC	17%
CCOc1ccc(CCNC(=O)C2CCN(c3ncnc4c3nc3n4CCCCC3)CC2)cc1	-2%
CCOc1ccc(/C=C/c2nc(C#N)c(N3CCCCCC3)o2)cc1	1%
O=C(Cn1c(=O)nc(-c2ccccc2)c2cc(Cl)ccc21)NCc1ccc(Cl)cc1	1%
O=C(Nc1ccc(Cl)cc1)c1cc(S(=O)(=O)NC2CCCCCC2)ccc1F	?
O=C(Cn1c(=O)n(Cc2cccs2)c(=O)c2cccnc21)Nc1ccccc1F	-5%
Cc1ccc(CCNC(=O)c2ccc3c(c2)N(Cc2ccccc2)C(=O)c2ccccc2S3=O)cc1 (centres undefined)	-10%
O=C(Nc1ccccc1Cl)c1sc2cccc(Cl)c2c1Cl	-25%
CN(C(=O)Cn1c(=O)n(CCC(=O)NCc2ccc3c(c2)OCO3)c(=O)c2sccc21)c1ccccc1	-5%
CCN(CC)S(=O)(=O)c1nnc(NC(=O)c2ccc(Br)cc2)s1	-17%
Fc1ccc(CNc2nc3ccc(Cl)cc3n3nnnc23)cc1	-1%
CCOC(=O)c1c(C)[nH]c(C)c1S(=O)(=O)N(C)CC(=O)Nc1ccc(OC)cc1	-6%
COc1ccc(CNC(=O)CSCc2ccc(C)cc2)c(OC)c1	-8%
CN(C)CCNC(=O)c1ccc2c(c1)NC(=O)C(CS(=O)(=O)Cc1cccc(Br)c1)N2 (centres undefined)	-4%
CCOC(=O)c1c(C)oc2ncnc(N3CCN(c4ccccc4OC)CC3)c12	6%
Cc1ccc(C)c(CS(=O)(=O)c2cn(CC(=O)N(C(C)C)C(C)C)c3ccccc23)c1	0%
CCOC(=O)C1CCN(C(=O)Cn2nc(CC)n3c(cc4occc43)c2=O)CC1	-1%
CNc1ncnc2c1cnn2-c1ccc(C)c(C)c1	-53%
COc1ccccc1NC(=O)c1cccc(S(=O)(=O)N2CCCCCC2)c1	10%

Two successive records from above, for reference:
SMILES	miR-21 FLuc
CNc1ncnc2c1cnn2-c1ccc(C)c(C)c1	-53%
COc1ccccc1NC(=O)c1cccc(S(=O)(=O)N2CCCCCC2)c1	10%

(listing goes on)
SMILES	miR-21 FLuc
CCCCCn1c(=O)[nH]c2cc(C(=O)NC(C)CC)ccc2c1=O (centres undefined)	7%
Cc1cc(C)c(NC(=O)CN2C(=O)c3cccnc3Oc3ccc(Cl)cc32)c(C)c1	-6%
Cn1cc(C(=O)NCCc2ccc(Cl)cc2)c(=O)c2cc(S(=O)(=O)N3CCCCC3)ccc21	-5%
Cc1cc2nn(-c3ccc(F)cc3)nc2cc1NC(=O)c1ccc(C(C)(C)C)cc1	-13%
CCOc1ccc(C(c2c(O)cc(C)n(Cc3ccco3)c2=O)N2CCCCC2)cc1 (centres undefined)	6%
COc1cccc(NC(=O)CSc2nc3c([nH]c4ccccc43)c(=O)n2-c2cccc(Cl)c2)c1	16%
Cc1cccc(C(=O)Nc2cc3nn(-c4ccc(C(C)C)cc4)nc3cc2C)c1	-6%
CC(=O)N1CCc2c(sc3c2c(=O)n(Cc2ccccc2)c(=O)n3Cc2ccccc2Cl)C1	-4%
CCC(=O)Nc1ccc2nc(SCc3ccc(C)cc3)sc2c1	-18%
CCN1CCN(CCCNC(=O)c2cnn(-c3ccc(C)cc3)c2C2CCN(C(=O)OC(C)(C)C)CC2)CC1	-7%
Cc1nn(CCC(=O)Nc2ccc(Cl)cc2)c(C)c1S(=O)(=O)N1CCCCC1	20%
O=C(Nc1ccc(S(=O)(=O)N2CCCCCC2)cc1)c1cc(=O)c2ccccc2o1	0%
COc1ccc(OC)c(NC(=O)N2CC(C)Oc3ccc(C)cc32)c1 (centres undefined)	3%
COc1ccccc1C(=O)OCc1cc(=O)n2nc(-c3cccs3)sc2n1	-13%
CCn1cc(CNC(=O)c2cc(-c3ccc(C)cc3)nc3ccc(Br)cc23)c(C)n1	2%
Cc1cccc(Cn2c(SCc3ccc(C(=O)NCCc4ccccc4)cc3)nc3ccncc32)c1	25%
Cc1ccccc1OCC(=O)Nc1ccc2nc(SCCOc3ccccc3)sc2c1	-5%
COc1ccc2nc(C)cc(Nc3ccc(Cl)c(Cl)c3)c2c1	-7%
Cc1ccccc1OCCSc1nc(C)c(Cc2ccccc2)c(=O)[nH]1	10%
O=C(NCc1cccc(Cl)c1)C(=O)Nc1ccc2nc3n(c(=O)c2c1)CCCCC3	17%
CCc1c(C)nc2nncn2c1NCc1ccc(OC)cc1	12%
CCOc1ccccc1NC(=O)C1CCN(S(=O)(=O)c2ccc3[nH]c4c(c3c2)CCCCC4)CC1	9%
COc1cccc(C(=O)Nc2ccccc2C(=O)OCc2cc(=O)n3c(C)csc3n2)c1	3%
Cc1ccc(-n2c(SCC(=O)N3CCc4ccccc43)nc3c([nH]c4ccccc43)c2=O)cc1	-14%
O=C(Cn1nc2c(cc1=O)CCCC2)Nc1ccc(F)cc1F	-9%

Sorted by count of non-hydrogen atoms (ascending): some entries from above.
SMILES	miR-21 FLuc
CCc1c(C)nc2nncn2c1NCc1ccc(OC)cc1	12%
O=C(Cn1nc2c(cc1=O)CCCC2)Nc1ccc(F)cc1F	-9%
CCCCCn1c(=O)[nH]c2cc(C(=O)NC(C)CC)ccc2c1=O (centres undefined)	7%
COc1ccc(OC)c(NC(=O)N2CC(C)Oc3ccc(C)cc32)c1 (centres undefined)	3%
Cc1ccccc1OCCSc1nc(C)c(Cc2ccccc2)c(=O)[nH]1	10%
COc1ccccc1C(=O)OCc1cc(=O)n2nc(-c3cccs3)sc2n1	-13%
Cc1nn(CCC(=O)Nc2ccc(Cl)cc2)c(C)c1S(=O)(=O)N1CCCCC1	20%
Cc1cccc(C(=O)Nc2cc3nn(-c4ccc(C(C)C)cc4)nc3cc2C)c1	-6%
Cc1cc2nn(-c3ccc(F)cc3)nc2cc1NC(=O)c1ccc(C(C)(C)C)cc1	-13%
Cc1ccccc1OCC(=O)Nc1ccc2nc(SCCOc3ccccc3)sc2c1	-5%
COc1cccc(C(=O)Nc2ccccc2C(=O)OCc2cc(=O)n3c(C)csc3n2)c1	3%
Cn1cc(C(=O)NCCc2ccc(Cl)cc2)c(=O)c2cc(S(=O)(=O)N3CCCCC3)ccc21	-5%
COc1cccc(NC(=O)CSc2nc3c([nH]c4ccccc43)c(=O)n2-c2cccc(Cl)c2)c1	16%
CCOc1ccccc1NC(=O)C1CCN(S(=O)(=O)c2ccc3[nH]c4c(c3c2)CCCCC4)CC1	9%
Cc1cccc(Cn2c(SCc3ccc(C(=O)NCCc4ccccc4)cc3)nc3ccncc32)c1	25%
CCN1CCN(CCCNC(=O)c2cnn(-c3ccc(C)cc3)c2C2CCN(C(=O)OC(C)(C)C)CC2)CC1	-7%

(more compounds)
SMILES	miR-21 FLuc
Cc1ccc2c(c1)-c1onc(C(=O)N(C)c3ccc(F)cc3)c1CO2	-27%
CCn1c(CN2CCC(C)CC2)nc2cc(NC(=O)c3cccc([N+](=O)[O-])c3)ccc21	19%
Cc1ccc(-n2c(=O)c3ccc(C(=O)NCc4ccccc4Cl)cc3n(CC(=O)Nc3ccc(C)cc3C)c2=O)cc1	1%
COc1ccccc1N1CCN(S(=O)(=O)c2ccc3[nH]c4c(c3c2)CCCC4)CC1	18%
Cc1ccc(CN(Cc2ccco2)C(=O)c2oc3cc(Br)ccc3c2C)cc1	-3%
COc1ccc2c(CNCCc3cccs3)c(C(=O)O)n(Cc3ccc(F)cc3Cl)c2c1	?
CCOc1ccccc1NC(=O)N1CCC2(CC1)Oc1ccccc1C(=O)N2Cc1ccccc1F	25%
O=C1CS(=O)(=O)C2(C(=O)N(Cc3ccc(F)cc3)c3ccccc32)N1c1cccc(C(F)(F)F)c1 (centres undefined)	21%
CCc1nnc2c(N3CCN(c4cc(Cl)ccc4C)CC3)nc3ccccc3n12	3%
COc1cc(C2c3c(-c4c(C)cc(C)cc4O)n[nH]c3C(=O)N2Cc2ccco2)cc(OC)c1OC (centres undefined)	4%
O=C(CCNS(=O)(=O)c1ccc2c(c1)CCCC(=O)N2)Nc1cccc(Cl)c1	0%
CC1=C(C(=O)Nc2ccccc2)C(c2cc(Br)ccc2F)n2ncc(C(=O)Nc3ccccc3)c2N1 (centres undefined)	29%
CNC(=O)C1CCC(Cn2c(=O)c3sccc3n(Cc3ccc(F)cc3)c2=O)CC1 (centres undefined)	-1%
CC1=C(C(=O)Nc2ccc(Cl)cc2)C(c2ccccc2F)n2nc(SCc3cccc(Cl)c3)nc2N1 (centres undefined)	-2%
CCCn1c2ccccc2c2cnn(CC(=O)NCCCN(Cc3ccccc3)C(C)C)c(=O)c21	2%
CCOC(=O)c1cc2c(=O)n3ccccc3nc2n(CC2CCCO2)c1=NC(=O)c1cccc(C(F)(F)F)c1 (centres undefined)	6%
CSc1ccc(-c2nc3cccc(C)n3c2Nc2ccc(Cl)cc2)cc1	?
COc1cc(NC(=O)c2ccc(C(=O)Nc3cc(OC)c(Cl)cc3OC)cc2)c(OC)cc1Cl	-3%
CCN(CC)CCNC(=O)C(=O)NCC(c1cccnc1)N1CCN(c2ccccc2)CC1 (centres undefined)	-2%
CCN(CC)CCOC(=O)c1ccc(NC(=O)CCn2c(=O)oc3ccccc32)cc1	-3%
COc1ccccc1NC(=O)C1=C(C)Nc2nc(-c3ccco3)nn2C1c1cccc(C)c1 (centres undefined)	17%
CCC(C)NC(=O)C1CCC(CNS(=O)(=O)c2ccc(Cl)cc2)CC1 (centres undefined)	-1%
CCN1CCN(C(=O)c2ccc3c(c2)N(Cc2cccc(Cl)c2)C(=O)c2ccccc2S3=O)CC1 (centres undefined)	1%
Cc1ccc(-n2ncc(C(=O)Nc3ccc4c(c3)OCCO4)c2C2CCN(C(=O)OC(C)(C)C)CC2)cc1C	-36%
Oc1c(C(c2cccc(Br)c2)N2CCCC2)sc2nc(-c3ccco3)nn12 (centres undefined)	-1%

Following part:
SMILES	miR-21 FLuc
CCn1c(C(=O)Nc2cc(Cl)ccc2C)cc2sc(Cl)cc21	-6%
COc1ccc(CCNC(=O)c2ccc3c(Cl)c4c(nc3c2)CCCC4)cc1OC	4%
COc1ccc(OCCCn2c(C)nc3cc(C)c(C)cc32)cc1	12%
COc1ccc(Cl)cc1S(=O)(=O)N1CCN(Cc2cccc(F)c2)CC1	-2%
COc1ccc(-c2cccc(NS(=O)(=O)c3ccc(NC(C)=O)cc3)c2)nn1	5%
Oc1ccc(O)c2c1C1c3ccccc3C2c2ccccc21	1%
COCCn1c(C)cc(O)c(C(c2ccccc2)N2CCCCC2)c1=O (centres undefined)	-1%
COc1cccc(CNC(=O)c2nn(C)c3c2CS(=O)(=O)c2ccccc2-3)c1	1%
COc1cc2c(=O)n(Cc3ccccc3Cl)c(=O)n(CC(=O)Nc3ccccc3)c2cc1OC	-5%
Cc1cn2c(=O)cc(COC(=O)c3ccc(NC(=O)C(C)Oc4ccccc4)cc3)nc2s1 (centres undefined)	?
Cc1ccn2c(Nc3ccc4c(c3)OCO4)c(-c3ccc(Cl)cc3)nc2c1	-18%
CCc1ccccc1N(C)C(=O)c1cc2c(s1)-c1c(C)cccc1OC2	-19%
COCCCNC(=O)c1cc2c(=O)oc3ccc(C)cc3c2s1	20%
Cc1nnc(NC(=O)CSc2nccn2Cc2ccc(Cl)cc2)s1	-6%
CC1CCCCN1C(=O)Cn1c(=O)n(-c2ccc(Cl)cc2)c(=O)c2c3c(sc21)CCC3 (centres undefined)	12%
CCc1nn(CC(=O)Nc2ccc(C)cc2C)c(=O)c2cc3sccc3n12	-2%
CCc1nn2c(=O)cc(COC(=O)c3cccc(NC(=O)c4cccs4)c3)nc2s1	-9%
Cc1ccc(S(=O)(=O)N2CCc3cc(C(=O)NCCc4ccccc4)ccc32)cc1	-11%
CCN(CC)c1ccc(NC(=O)c2cc(C)nc3c2c(C)nn3-c2ccc(C)cc2)c(C)c1	4%
Cc1cc(C)c(NC(=O)C2CCN(S(=O)(=O)c3c(C)noc3/C=C/c3ccccc3F)CC2)c(C)c1	2%
COc1cccc(NC(=O)CSC2=Nc3ccccc3C3=NC(CC(=O)NCc4ccccc4OC)C(=O)N23)c1 (centres undefined)	15%
CC(C)OCCCNC(=O)CN1C(=O)c2ccccc2Sc2ncccc21	-17%
Cc1nn(-c2ccccc2)c2c1N(CC(=O)N1CCN(c3ccc(Cl)cc3)CC1)C(=O)CS2	-1%
CCOc1ccc(N(CC)S(=O)(=O)N2CCCC(C(=O)Nc3ccc(NC(C)=O)cc3)C2)cc1 (centres undefined)	4%
CCOC(=O)c1ccc(Nc2nn3c(=O)c4ccccc4nc3s2)cc1	1%

(next part)
SMILES	miR-21 FLuc
CCOCCCNC(=O)c1ccc(-n2c(-c3ccccc3)cc3c2CCCCC3)cc1	?
CCOCCc1nn2c(=O)cc(COC(=O)c3ccccc3NC(=O)C3CCCCC3)nc2s1	-1%
CC1CCCCN1C(=O)CSc1nc(-c2ccccc2)no1 (centres undefined)	-16%
COc1ccc(OC)c(NC(=O)Cn2ncc3c2-c2ccccc2OC3)c1	-2%
COc1cc2nc(SCC(=O)Nc3cccc(C)c3)n3nc(-c4ccccc4)nc3c2cc1OC	1%
COc1ccc(Cl)cc1-n1cc(-c2ccccc2)nc1SCC(=O)Nc1ccc(C)cc1	?
CNC(=O)COC(=O)c1ccc2c(c1)NC(=O)C1CCCN21 (centres undefined)	1%
